Menin-MLL FL inh – inhibitors of human menin-MLL interaction, wild-type MLL peptide; Fluorescence polarization, fluorescein-MLL peptide displacement from menin; FP activity change, % at 61.4 µM; 290,000 tested, under 10 active; AID 1766; inconclusive = falling polarisation curve, or a change in total fluorescence; inactive = total fluorescence flat and polarisation flat or rising; no compound was filed as active; the % refers to the polarisation; negative = inhibition;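 note: % of control where 0% means no effect; inhibitors lower the polarisation; unlabelled MLL peptide was the positive control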
ClpP mod – qHTS Assay for Activators of ClpP; purified B. subtilis ClpP, FRET peptide cleavage, 20 min; Potency, µM (series often up to 57.5 µM), inactives show at the top dose activity change, negative = active; 1.9% of 340,000 active; AID 651965, 2013; active = well fitted falling curve with a large enough effect; inconclusive = small, poorly fitted or top-dose-only effect; inactive = no such curve, though single readings can be large or run the other way; note: potency is the fitted concentration of half-maximal effect; the source files actives as falling curves though it sought activators and does not explain the sign; nearly all actives have a fitted effect of over 65% in size; many hits overshoot -100%
Target sequence (P80244 whole entry, looked up): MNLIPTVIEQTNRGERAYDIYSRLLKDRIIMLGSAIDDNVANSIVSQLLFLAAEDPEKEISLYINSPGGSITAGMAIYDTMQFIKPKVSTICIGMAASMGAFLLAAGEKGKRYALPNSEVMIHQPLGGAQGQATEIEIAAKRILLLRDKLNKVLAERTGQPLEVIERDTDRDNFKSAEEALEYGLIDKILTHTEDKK
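Purified B. subtilis ClpP, 10 microg/mL final in Tris/HCl pH8 with KCl, BSA, glycerol and Tween-20, cleaved an Abz/nitrotyrosine-quenched decapeptide. Fluorescence (ex 320, em 430) was read at 0 and 20 min at room temperature. Delta was normalized to 5.8 microM ADEP and DMSO/no-enzyme controls.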
Sfp inh – blocks B. subtilis Sfp PPTase activity; Potency, µM, for inactives: max response, negative = inhibition, usual class: inhibitors; 3.5% of 310,000 active; AID 1490; Q9F4F7; Biochemical Sfp PPTase activity, qHTS; active = well fitted inhibition curve with a large enough effect; inconclusive = small, poorly fitted or top-dose-only effect, or another doubt; inactive = no such curve, though single readings can be large or run the other way;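 note: the enzyme is Sfp with the accession as filed and its product quenches rhodamine fluorescence; potency is the fitted concentration of half-maximal effect; 0% = enzyme reaction without inhibitor and -100% = no enzyme wells; top concentration of the series not given in the record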
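Step 1, compound plus 15 nM Sfp-PPTase, 15 min, room temperature. Step 2, add rhodamine-CoA (5 uM) and BHQ-2-YbbR (12.5 uM). Step 3, read 525/598 nm fluorescence at 0 and 30 min.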
gsp agonist – activates gsp, the McCune-Albright syndrome mutation. gsp mutant cells, cAMP HTRF, 30 min; control for the full effect not named in the record. 0.13% of 340,000 active. Potency, µM (top dose mostly 76.9 µM), without a hit: at the highest dose activation (cAMP increase), hits mostly activators. AID 624287; active = well fitted activation curve with a large enough effect; inconclusive = small, poorly fitted or top-dose-only effect, or another doubt; inactive = no such curve, though single readings can be large or run the other way; cell line not stated here;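 note: phosphodiesterase inhibitor Ro 20-1724 added with compounds to block cAMP breakdown; potency is the fitted concentration of half-maximal effect; nearly all actives have a fitted effect of over 60% in size; about a fifth of the inactives were tested at one dose only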
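Cells stably selected in G418 were plated at 2000/well, grown 16-24 hr, then given compounds in DMSO with the PDE inhibitor […] (300 uM solution added) for 30 min at 37C; cAMP was read by HTRF.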
PINK1 expr mod – modulators of PINK1 expression; PINK1 immunofluorescence, high-content cytometry, 24 h; Potency, µM (top dose mostly 76.6 µM), without a hit: at the highest dose activation (PINK1 increase), hits mostly activators; 0.2% of 410,000 active; active = well fitted activation curve with a large enough effect; inconclusive = small, poorly fitted or top-dose-only effect; inactive = flat fitted curve, though single readings scatter; cell line not stated here;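 note: potency is the fitted concentration of half-maximal effect; % of control where 0% means no effect; nearly all actives have a fitted effect of over 65% in size; a mitochondrial uncoupler was the plate control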
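Stable cell line, 250 cells/well, 12 h attachment; compounds pinned at 5 concentrations, 24 h; CCCP control. Fixed with nuclear dye, primary antibodies 12 h at 10 degrees C, secondary plus cell stain; laser-scanning cytometer read.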
D2 agonist – activates the human D2 dopamine receptor; P14416; DiscoveRx PathHunter D2 beta-arrestin, luminescence, 90 min; 100% = 57 uM dopamine signal; activation, % (no concentration beside the values); 0.084% of 360,000 active; AID 624465; in the data active = activation above about 40%; inconclusive = about 15% to 40%; inactive = below about 15%; note: compound concentration not given in the record; the text of the record calls up to 30% inactive
Target sequence (P14416 whole entry, looked up): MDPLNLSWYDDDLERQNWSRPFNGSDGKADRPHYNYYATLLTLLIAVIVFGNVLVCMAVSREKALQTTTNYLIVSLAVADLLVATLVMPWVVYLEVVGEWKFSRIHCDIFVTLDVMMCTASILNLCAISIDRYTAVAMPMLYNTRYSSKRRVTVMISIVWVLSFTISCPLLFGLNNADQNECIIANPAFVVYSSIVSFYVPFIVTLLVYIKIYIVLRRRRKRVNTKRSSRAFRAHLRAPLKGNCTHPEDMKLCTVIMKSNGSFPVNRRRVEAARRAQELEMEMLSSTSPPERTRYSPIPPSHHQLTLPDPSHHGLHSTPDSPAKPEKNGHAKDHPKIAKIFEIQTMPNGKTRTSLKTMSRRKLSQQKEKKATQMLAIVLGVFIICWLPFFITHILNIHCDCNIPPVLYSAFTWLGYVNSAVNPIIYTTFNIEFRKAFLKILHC
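Agonist mode: compounds alone added to overnight-plated D2 PathHunter cells for 90 min at 37 C, with 57 uM final dopamine (EC100) defining full response. Beta-arrestin recruitment detected by chemiluminescent reagent, read after 1 h at ambient temperature.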
gsp antag – gsp mutant antagonism | 0.4% of 340,000 active | Potency, µM (titrated, usually from 76.9 µM), for inactives: at the top dose activity change, negative = inhibition, hits mostly inhibitors | gsp-mutant cells, cAMP HTRF, 30 min; control for the full effect not named in the record; active = falling curve of any shape with a large fitted effect; inconclusive = falling curve, mostly with a smaller effect; inactive = flat or rising curve; cell line not stated here;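 note: intracellular cAMP measured with PDE inhibitor Ro 20-1724 present during compound exposure; potency is the fitted concentration of half-maximal effect; % is set by controls: 0 for no effect and ±100 for the full control effect; nearly all actives have a fitted effect of over 65% in size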
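G418-selected cells were plated in DMEM/10% FBS for 16-24 h at 37C, then treated with compounds plus the PDE inhibitor […] (300 uM solution added) for 30 min at 37C. Intracellular cAMP was measured by HTRF after 30 min lysis at room temperature.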
* marks the source's active call; other numbers are inactive results; ? = inconclusive; . = no result given; & = joins results of further samples; [ ] = dose if it differs, or a comment. Compounds were not picked by outcome. Share with any hit: about 5.1%.

SMILES	Menin-MLL FL inh	ClpP mod	Sfp inh	gsp agonist	PINK1 expr mod	D2 agonist	gsp antag
N#Cc1ccsc1NC(=O)COC(=O)c1ccc(Br)o1	.	-3.9%	.	24%	1.9%	-3.4	-7%
O=C(NC(=S)Nn1cnnc1)c1ccccc1Cl	-1.1	.	40µM*	23%	1.3%	-0.9	0%
CCn1nnnc1SCC(=O)N(C1CCCCC1)C1CCCCC1	-1.8	1.9%	4%	3%	0.9%	-4.2	-35%
COc1ccc(C2CCCCCN2C(=O)C2CCN(S(=O)(=O)c3ccc(C)cc3)CC2)cc1 (stereo unspecified)	.	-2.4%	.	-29%	-0.9%	1.0	.
CCC(C)(O)c1[nH]c2ccc(C#N)cc2c1C (stereo unspecified)	4.7	-12%	19%	-8%	0.5%	-0.6	4%
CC(=O)OCc1cc2cc(C)ccc2[nH]c1=O	0.3	-28%	8%	?	-1.2%	-1.3	6%
Cn1c(=N)n(CC(O)c2cccc3ccccc23)c2ccccc21 (stereo unspecified)	-1.1	8.9µM*	21%	14%	0.9%	-4.2	7%
CN1C(C(=O)Nc2ccccn2)=C(O)c2ccccc2S1(=O)=O	-6.3	-3.2%	?	.	-1.1%	-3.7	-4%
COC(=O)[C@H]1[C@@H](C)N(Cc2ccccc2)C(=O)N[C@H]1c1ccccc1	0.1[11.7 µM]	-1.2%	16%	-22%	-0.9%	-0.8	0%
CC(C)(C)S(=O)N1Cc2cc(C(=O)Nc3ccc(-c4ccccc4)cc3)nc(-c3cccc(-c4cc5ccccc5o4)c3)c2[C@@H]1CCO (stereo partly specified)	.	-21%	.	.	0.1%	3.8	.
C=CCn1c(CC#N)nnc1N1CCOCC1	0.9	0.6%	-9%	10%	-0.8%[38.3 µM]	1.3	4%
CCOc1ccccc1N(CC(=O)N1CCOCC1)S(=O)(=O)c1ccc(SC)cc1	1.1	-2.1%	15%	-2%	-2.2%	-2.0	-2%

New compounds follow
SMILES	Menin-MLL FL inh	ClpP mod	Sfp inh	gsp agonist	PINK1 expr mod	D2 agonist	gsp antag
O=C(Nc1ccc(SC(F)F)cc1)c1cccc2nc3ccccc3nc12	1.4	-0.4%	-14%	-8%	9.1%	-2.5	-9%
Cc1cc(NC(=O)c2cccc(S(=O)(=O)N3c4ccccc4CC3C)c2)no1 (stereo unspecified)	2.2	-3.0%	18%	27%	-1.4%	-1.4	-20%
Cc1onc(-c2ccccc2Cl)c1C(=O)NNC(=O)C1CCN(Cc2ccccc2)CC1	-15	0.7%	11%	1%	-0.2%	-4.5	17%
O=C(CN1CCOCC1)N1CCN(S(=O)(=O)c2ccccc2)C1c1ccccc1 (stereo unspecified)	-0.9	-0.6%	16%	-32%[inhibitor]	-2.5%	-0.9	-6%
Cc1cc(C(=O)O[C@H]2[C@H](Cc3ccccc3)NS(=O)(=O)[C@H]3C[C@@H]4C=C[C@]23O4)ccc1[N+](=O)[O-]	.	0.3%	.	.	2.6%	-4.1	-11%
O=C(CN(Cc1ccccc1F)C(=O)c1ccco1)NCc1ccc(F)cc1	2.7	-1.9%	5%	1%	0.4%	-6.2	7%
Cc1cc(NC(=O)CSc2nc3c(cc2C#N)CCC3)no1	-1.7	.	-2%	12%[15.4 µM]	7.8%	-0.1	1%
CCc1cc(=O)oc2cc(OC(C)C(=O)O)c(Cl)cc12 (stereo unspecified)	3.3	?	4%	-2%	-1.4%	0.7	9%
CCSc1oc(-c2ccco2)nc1S(=O)(=O)c1ccccc1	2.7	-1.3%	0%	-54%[inhibitor]	0.0%[38.3 µM]	-1.2	3%
Cc1nc(N2CCN(c3ccccn3)CC2)c2c(C)c(C(=O)Nc3ccc(F)cc3)sc2n1	1.4	.	9%	7%	2.4%	-3.5	?
Cc1cccc(-n2c(N)cc(=O)nc2SCC(=O)Nc2cc(C)on2)c1	0.3	-1.0%	5%	-22%	-0.4%	-0.6	7%
O=C(O)C1CCN(C(=O)CSc2nnc3ccccn23)CC1	.	3.6%	.	2%	0.4%	0.2	4%

Carrying on.
SMILES	Menin-MLL FL inh	ClpP mod	Sfp inh	gsp agonist	PINK1 expr mod	D2 agonist	gsp antag
CCOC(=O)C(Sc1cc(-c2ccccc2)nc2ncnn12)C(C)=O (stereo unspecified)	16	-2.6%	-19%	1%[15.4 µM]	-0.5%	-6.9	-7%
Cc1cc(C)c2nc(SCC(=O)NCCN3C(=O)CSC3=O)cc(C)c2c1	5.2	-8.9%	13%	-60%[inhibitor]	1.8%	-2.5	-11%
O=S(=O)(Nc1ccc(-n2cnnn2)cc1)c1cccs1	.	-0.2%	.	-14%	-0.8%	-2.0	-23%
CN(CC(=O)Nc1cccc(F)c1)C(=O)Cc1ccsc1	.	-3.2%	.	19%	0.0%	-4.6	.
CC1(CC(=O)N/N=C/c2cc([N+](=O)[O-])c(O)cc2O)OCCO1	-5.5	.	6%	15%[15.4 µM]	0.3%	-2.1	-6%
CC1(C)CC(=O)C=C(c2ccc(COC(=O)C3CC3)cc2)C1=O	.	-0.8%	.	19%	0.2%	-8.1	.
CC(C)N(C(=O)COC(=O)[C@H](C)NC(=O)c1ccco1)c1ccccc1	-0.2	-2.3%	16%	?	-1.5%	-3.6	-7%
CC(=O)NC(CCS(C)(=O)=O)C(=O)Nc1cc(C)ccc1C (stereo unspecified)	-1.8	-1.8%	17%	28%	2.5%	-5.8	5%
Cc1ccc(NC(=O)COC(=O)c2cc(=O)c3cc(F)ccc3o2)cc1	.	.	.	7%[15.4 µM]	2.0%	-4.9	3%
CCCc1cc(O)c2c(C)cc(=O)oc2c1	0.1	0.1%	-3%	31%	-3.2%[38.3 µM]	0.3	-1%
N#Cc1ccccc1NC(=O)c1ccccc1OCC(=O)Nc1ccc2c(c1)oc1ccccc12	.	9.0%	.	-5%	.	-1.5	9%
COCCn1c(SCC(=O)c2ccc(Cl)cc2)nnc1C(C)C	2.5	1.1%	79µM*	-37%	-0.2%	-3.3	9%

Next section
SMILES	Menin-MLL FL inh	ClpP mod	Sfp inh	gsp agonist	PINK1 expr mod	D2 agonist	gsp antag
CC(=O)C1C(=O)CC(c2ccc(Cl)cc2)CC1=O (stereo unspecified)	-1.5	.	18%	20%	0.3%	1.0	-17%
Cc1noc(-c2ccc(C(F)(F)F)cc2)c1NC(=O)Nc1ccc(Cl)cc1	6.1	1.0%	-6%	4%	?	1.1	-20%
CC1CCN(Cc2cc(=O)oc3ccc(C(C)C)cc23)CC1	-1.1	1.0%	-10%	0%	?	1.1	-7%
CCC(CC)c1nnc(NC(=O)c2ccc([N+](=O)[O-])cc2)s1	1.9	-0.4%	4%	17%	2.3%	-5.1	1%
CCN(C(=O)CO/N=C/c1ccc(OC)cc1OC)c1c(N)n(Cc2ccccc2)c(=O)[nH]c1=O	.	-1.4%	.	40%	-0.6%	3.0	16%
CCOc1ccc(CNc2ccc(N3CCCC3)cc2)cc1	6.6	-15%	?	-69%[inhibitor]	-4.1%[38.3 µM]	2.4	1%
CCC(C)(C)n1nnnc1C(c1cc2ccc(OC)cc2[nH]c1=O)N1CCN(C2CCCCC2)CC1 (stereo unspecified)	4.4	?	3%	27%	-3.1%[38.3 µM]	6.4	9%
Cc1ccc(OCC(=O)NCCCNC(=O)c2cnccn2)cc1C	2.0	.	7%	12%	1.3%	5.7	6%
CC1(C)NC(=O)N(c2ccc([N+](=O)[O-])c(C(F)(F)F)c2)C1=O	-0.9	0.3%	4%&-6%&13%&3%	.	0.9%	-2.5	-2%
Cc1ccc(S(=O)(=O)C2(C(=O)NC3CCCCC3)CC2)cc1	-2.4	0.6%	11%	?	4.2%	-0.1	18%
CCc1ccc(NC(=O)Cn2nnc(C(=O)NCc3ccco3)c2N)cc1	-0.6	2.5%&4.3%	1%	?	-0.7%&0.6%	2.8	6%
CCN(c1ccc(OCC(=O)OCC(=O)c2c(N)n(C)c(=O)n(C)c2=O)cc1)S(=O)(=O)c1ccccc1	0.4	.	-14%	25%	2.1%	-3.3	-13%

Additional structures follow.
SMILES	Menin-MLL FL inh	ClpP mod	Sfp inh	gsp agonist	PINK1 expr mod	D2 agonist	gsp antag
CCCc1cc(-c2n[nH]c(C(=O)OCC)c2-c2cscn2)c(O)cc1O	2.3	1.9%	0%	14%	-2.2%[38.3 µM]	1.3	-18%
COc1cc(/C=N/NC(=O)Cn2cnc3c2c(=O)n(C)c(=O)n3C)ccc1O	0.0	-23%	25%	22µM*	0.5%	1.1	7%
CN1C(=O)[C@H]2[C@@H](c3ccc(C(F)(F)F)cc3)N[C@]3(CCCN(Cc4cccn4C)C3=O)[C@H]2C1=O	.	-1.5%	.	11%	2.0%	-6.6	.
COc1cc(/C=C/C(=O)OCC(=O)Nc2ccc(S(N)(=O)=O)cc2)ccc1O	6.5	-12%	9%	16%	2.0%	-3.8	-9%
Cc1cc(C(=O)CSc2nnc(N)s2)c(C)n1CCc1ccc(F)cc1	3.4	1.4%	-4%	-2%	2.9%	-3.2	0%
CCOC(=O)N1CCN(C(=O)c2ccc(CS(=O)(=O)c3ccccc3OC)o2)CC1	-4.1	1.9%	79µM*	-2%	1.0%	-2.0	-19%
C=CCn1c(SCCC(=O)O)nnc1-c1cccs1	-0.4	28µM*	-4%	2%	0.5%	-2.4	3%
CN(c1ccc(C(=O)NCc2cccnc2)cc1)S(=O)(=O)c1ccc(Cl)cc1	.	-1.0%	-4%	-28%	1.6%	-1.3	-7%
COc1cccc(-c2cc(NCc3ccc(OC)cc3OC)ncn2)c1	-6.4	.	?	.	4.1%	.	.
COc1ccc(Cc2c(-c3ccccc3)nc3ccc(Br)cn23)c(C)c1	.	-1.6%	.	.	32µM*	-5.6	.
CC(C)C[C@H]1CN([C@@H](CC(C)C)CN2CCC[C@@H]2CN2C(=O)C(=O)NC[C@@H]2Cc2ccccc2)C(=O)C(=O)N1CCc1ccccc1	.	-0.1%	.	.	-1.3%	-1.5	-28%
